Source: PubChem BioAssay (Broad Institute)
Tg IFNy HTS = T. gondii growth inhibition with IFN-gamma, primary screen, cell-based. Toxoplasma gondii growth in IFN-gamma-treated host cells; stronger effect = lower value; reference of the scale not given here. activity change, negative = inhibition, %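 (about 20 µM by stock and volumes)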. 3.8% of 69,000 active. AID 1259416, 2018;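 active means below -70%; inconclusive means fit judged invalid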;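 further: host cells are HeLa cells infected with Toxoplasma gondii; parasite growth read as luciferase light; one replicate is shown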
* marks the source's active call; other numbers are inactive results; i = inactive; ? = inconclusive; ! = repeats disagree. A portion of the library; rates above refer to the full screens.

#	Molecule	Tg IFNy HTS
1	CCc1nc(OCC(=O)Nc2cc(Cl)ccc2Cl)c2ccccc2n1	-38
2	Cc1noc(C)c1S(=O)(=O)N(C)C[C@@H]1OCCCC[C@@H](C)Oc2ccc(NS(=O)(=O)c3cn(C)cn3)cc2C(=O)N([C@H](C)CO)C[C@@H]1C	-34
3	O=C(c1cn[nH]n1)N(CCCn1ccnc1)Cc1ccncc1	-2
4	CN1C(=O)CCc2cc(NS(=O)(=O)Cc3ccc(Cl)cc3)ccc21	-30
5	COc1ccc(Cl)cc1NC(=O)C1CCN(S(=O)(=O)c2ccc3[nH]c(=O)ccc3c2)CC1	-67
6	Cc1ccc(C(=O)NCCc2csc(-c3ccccc3)n2)cc1	i
7	CC(=O)NCCN1CCc2onc(C(c3ccccc3)c3ccccc3)c2C1	9
8	O=C(CN1C(=O)COCC1=O)NCC1CCN(C2CCCC2)C1 (stereo not given)	3
9	COc1ccccc1CN(C(=O)c1cn2cccc(C)c2n1)C1CCN(C)CC1	0
10	Cc1nc(CN2CC3CC(C(=O)NC(C)C)C(C2)O3)cs1 (stereo not given)	-14
11	COCCn1cnc(-c2nc(C(=O)C3CC3)c3ccccn23)c1	-8
12	CCOC(=O)c1noc2nc(C)n(Cc3nc(-c4ccc(C)cc4)oc3C)c(=O)c12	56

Next part:
#	Molecule	Tg IFNy HTS
13	CC(Sc1nnc2c3ccccc3n(C)c2n1)C(=O)Nc1nc2c(s1)CCCC2 (stereo not given)	-65
14	Cc1nonc1C1CCCN1Cc1ncccc1C(=O)O (stereo not given)	3
15	CCOc1ccccc1N(Cc1nc(-c2ccccc2)oc1C)S(=O)(=O)c1ccccc1	-61
16	c1coc(-c2nc(NCCN3CCCCC3)ncc2-c2ccncc2)c1	0
17	COC(=O)C1=C(C)NC(C)=C(C(=O)OCCCN2CCC(c3ccccc3)(c3ccccc3)CC2)[C@H]1c1cccc([N+](=O)[O-])c1	-71*!
18	O=C(Cn1ncc2c(N3CCOCC3)ncnc21)Nc1ccccc1	119
19	COc1cccc(C(=O)N2CCC(C(=O)N3CCN(C)C(C(=O)O)C3)CC2)c1 (stereo not given)	7
20	CC1=C(C(=O)N2CCCC(C(=O)c3ccc4c5c(cccc35)CC4)C2)OCCO1 (stereo not given)	7
21	Cc1ccc(C)c(-c2[nH]ncc2-c2c(-c3ccccc3)ncn2CCC(N)=O)c1	-5
22	CCOC(=O)CCC(C#N)(c1ccc(Cl)cc1)N1CCOCC1 (stereo not given)	-8
23	CCS(=O)(=O)N1CCCCN2[C@H](CO)[C@@H](c3ccc(-c4ccc(C(=O)N(C)C)cc4)cc3)[C@H]2C1	5
24	Cn1cnc(CCNC(=O)C[C@@H]2CC[C@H]3[C@@H](COC[C@H](O)CN3C(=O)Nc3ccc(C(F)(F)F)cc3)O2)c1	1

Values by screen from the list:
Tg IFNy HTS, compounds 13–17, in order: -65, 3, -61, 0, -71*!

Back to the main list, starting two compounds before the break.
#	Molecule	Tg IFNy HTS
23	CCS(=O)(=O)N1CCCCN2[C@H](CO)[C@@H](c3ccc(-c4ccc(C(=O)N(C)C)cc4)cc3)[C@H]2C1	5
24	Cn1cnc(CCNC(=O)C[C@@H]2CC[C@H]3[C@@H](COC[C@H](O)CN3C(=O)Nc3ccc(C(F)(F)F)cc3)O2)c1	1
25	CCCn1cnnc1CNc1nc(-c2cccnc2)nc2c1cnn2C	8
26	CCOc1c(N2CCSCC2)c(=O)c1=O	11
27	CC(C)NC(=O)N1CCC[C@]2(C(=O)N3CCOCC3)CN(Cc3cnn(C)c3)C[C@H]2C1	6
28	O=C(NCc1csc(-c2cccs2)n1)Nc1cc(F)cc2c1OCOC2	-30
29	O=C(CN1CCCCC1CCN1CCOCC1)N1CCc2ccccc21 (stereo not given)	12
30	Cc1ccc(N2CCO[C@H]3CN(C(=O)CO)CC[C@@H]3C2)nn1	i
31	COc1c(F)cccc1C(=O)N1CCC(c2ccccc2C(=O)O)C1 (stereo not given)	3
32	Cc1ccc(-c2nc(C)c(CCNS(=O)(=O)c3cccs3)s2)cc1	116
33	Cc1ccc(CNC(=O)c2nnn(Cc3nc(-c4ccc(C)cc4)oc3C)c2C)cc1	-94*
34	Cc1cccc(C2=N/C(=C\c3cccnc3)C(=O)O2)c1	14
35	Cc1cnc(NC(=O)Nc2ccccc2)c(C)n1	17
36	COc1ccc(NC(=O)N[C@@H]2CC[C@H](CCNC(=O)CN3CCOCC3)O[C@@H]2CO)cc1	7

Next part:
#	Molecule	Tg IFNy HTS
37	CCN1CCCn2c(nc(CNC(=O)c3cccn3C)cc2=O)C1	5
38	COc1ccc2c(c1)OC1(CCN(C(=O)c3cc4cc(C)ccc4nc3C)CC1)CC2=O	-47
39	COCc1noc(CCn2cnc3sc4c(c3c2=O)CCNC4)n1	4
40	COc1cc(-c2nccn2CCO)c(OC)cc1SC	3
41	C/C=C/c1ccccc1[C@H]1[C@H](C#N)N(C(=O)CN2CCOCC2)[C@H]1CO	16
42	CN(Cc1cc2n(n1)CCCNC2)Cc1ncc[nH]1	3
43	Cc1ccc(CN2CCCN(C)C3(CCN(C)CC3)C2)c(Cl)c1Cl	0
44	CN(C)c1ncccc1CNc1ccc2cc(Cl)ccc2n1	14
45	COC(=O)[C@@H]1C[C@H](NS(=O)(=O)c2ccc(Cl)cc2)CN1C	1
46	CN(C)C(=O)c1ccc2onc(-c3csc(-c4cccnc4)n3)c2c1	-4
47	OCCNc1ccc(-c2cc3ccccc3o2)nn1	40
48	CCOC(=O)c1cc(CSc2n[nH]c(=O)n2-c2ccccc2C(F)(F)F)on1	7

(next part)
#	Molecule	Tg IFNy HTS
49	CC(=O)Nc1ccc(C(=O)N(Cc2ccccc2)C2(C(=O)NCc3ccccc3)CCN(C(C)=O)CC2)cc1	171
50	CCNC(=O)c1ccnc(N2CCC(CO)(Cc3ccccc3Cl)CC2)c1	-32
51	COc1ccc2c3c(n(C)c2c1)[C@H](CO)NCC31CCN(C(=O)Nc2ccc(F)cc2F)CC1	-10
52	CCCC(C)c1c(-c2ccccc2)ncn1Cc1cnc(C)cn1 (stereo not given)	-36
53	CCN1CCC2(CC1)OC(=O)C(C)=C2C(=O)NCCCN(C)Cc1ccccc1	82
54	Cn1c(CNC(=O)c2ccc(Cl)cc2Cl)cc2ccccc21	34
55	CCCn1nc2c(c1C)C(CCSC)CC(=O)N2 (stereo not given)	0
56	O=C1c2ccccc2-c2nc3ncnn3c(-c3ccc(Cl)cc3)c21	9
57	Cc1csc2c(=O)nc3c(C#N)n[nH]n3c12	47
58	CN(Cc1ccc2[nH]ccc2c1)Cc1cnn(-c2ccccc2)c1	-6
59	CN(C)CCNC(=O)CC1CC2(CCN(S(=O)(=O)C3CC3)CC2)c2ccccc21 (stereo not given)	0
60	CCC(C)NC(=O)C(=O)N1CCC(N2CCC(C(=O)NC(C)C)CC2)CC1 (stereo not given)	-3

Pulled by structure from the entries so far:
#	Molecule	Tg IFNy HTS
55	CCCn1nc2c(c1C)C(CCSC)CC(=O)N2 (stereo not given)	0
51	COc1ccc2c3c(n(C)c2c1)[C@H](CO)NCC31CCN(C(=O)Nc2ccc(F)cc2F)CC1	-10

Further structures
#	Molecule	Tg IFNy HTS
61	Cc1ccc(S(=O)(=O)N(C)C[C@@H]2OCCCC[C@H](C)Oc3ccc(NC(=O)c4ccncc4)cc3C(=O)N([C@H](C)CO)C[C@@H]2C)cc1	216
62	CC(=O)N1CCC(C(=O)NCc2ccccc2)(N(C(=O)c2ccc(C)cc2)c2ccccc2F)CC1	-26
63	O=C(C1CC1)N1CC2(C1)[C@H](c1ccccc1)[C@H](CO)N2S(=O)(=O)c1ccccc1	11
64	CC(C)c1nc(CCNC(=O)c2cn(-c3ccccc3)nn2)cs1	20
65	O=c1cc(CCn2cnc(-c3ccccc3)c2-c2cccc3cccnc23)nc[nH]1	-24
66	CC(C)c1cc(C2CCN(C(=O)c3ccc4c(c3)CCO4)CC2)[nH]n1	2
67	Cc1cc(NCCN2CCNC2=O)nc(-c2ccccc2)n1	48
68	CC1CCN(S(=O)(=O)c2ccc3c(ccc(=O)n3CC(=O)NCCC3=CCCCC3)c2)CC1	-77*
69	CC(=O)N1CCc2[nH]c3ccc(C(=O)NCc4ccc(N5CCCC5)cc4)cc3c2C1	i
70	C=CC[C@@H]1CC=C[C@@H](C)N1C(=O)c1cccc2ccnn12	-7
71	Cn1c(=O)c(-c2nc(-c3ccccc3F)no2)c(O)c2ccccc21	51
72	Cc1ccc(C(=O)N(CC(=O)NC2CCCC2)Cc2ccc3c(c2)OCO3)s1	-1

(more compounds)
#	Molecule	Tg IFNy HTS
73	CCCC(=O)N1CCc2cc(-c3nc(NC(=O)c4cccnc4)sc3C)ccc21	12
74	O=C(c1cnccn1)N1CCC2(CC1)CN(c1ncc(F)cn1)CCO2	-20
75	COc1ccc2c3c(n(C)c2c1)[C@H](CO)N(C(=O)Cc1ccccn1)CC31CCN(C)CC1	-1
76	CN(c1ccc(F)cc1)c1ccc2ccc(C(=O)NCCN3CCOCC3)cn12	431
77	CC(C)(C)c1ccc(C(=O)Oc2c(Cl)cncc2Cl)cc1	22
78	Cc1ccccc1N1CCN(C2CCCN(C(=O)c3c[nH]c(=O)[nH]3)C2)CC1 (stereo not given)	0
79	CN1C(=O)c2cc(NS(=O)(=O)c3ccccc3F)ccc2OC[C@@H]2O[C@@H](CC(=O)NC3Cc4ccccc4C3)CC[C@@H]21	-29
80	CN(C)c1nc(Oc2ccc(=O)n(-c3ccccc3)n2)nc(N2CCCC2)n1	-60
81	COc1ccc2oc(CNC(=O)C3CC(=O)N(CC(C)C)C3)nc2c1 (stereo not given)	0
82	Cc1ccc(-c2coc(-c3ccc(NC(=O)Nc4ccc(F)cc4F)cc3)n2)c(C)c1	3
83	CCN(C(=O)CN1C(=O)C2CCCCC2C1=O)c1nnc(-c2ccc(Cl)cc2)s1 (stereo not given)	12
84	CC1=CC(C)C2(COC(=O)Nc3ccccc3)COC(C)C1C2C (stereo not given)	-24

(more compounds)
#	Molecule	Tg IFNy HTS
85	O=C(CCCN1C(=O)/C(=C\c2cccc(Br)c2)SC1=S)Nc1cccnc1	15
86	O=C(CSc1ncn[nH]1)NCc1cccnc1Oc1ccccc1F	-5
87	Cc1ccc(OCCCN(C)C(=O)c2cn(-c3ccccc3)nn2)c(C)c1	-12
88	CCOC(=O)c1nc(N(C)c2ccc(F)cc2)c2ccccc2n1	-13
89	O=c1oc2ccc(Br)cc2cc1-c1csc(-c2ccc(Cl)cc2)n1	0
90	Nc1nccc(N2CCOC(CC(c3ccccc3)c3ccccc3)C2)n1 (stereo not given)	-61
91	Cc1ccc2cc(CN3CC(n4cccn4)C3)c(=O)[nH]c2c1	6
92	O/N=C/c1ccc(-c2ccc(O)c(F)c2)c(Cl)c1O	-87*
93	COc1ccccc1OCc1cc(C(=O)N2CCCC(C(C)(C)O)C2)n[nH]1 (stereo not given)	-5
94	CN1CCC(CN(C)C(=O)c2cccnc2N2CCN(C(=O)c3ccco3)CC2)C1 (stereo not given)	-5
95	COc1cccc(-c2nc3c(s2)N(C(C)C)C(C(=O)N2CCCCC2)C3)c1 (stereo not given)	-12
96	COCCC(=O)c1c2c(NCc3cccnc3)ncnc2n2ccccc12	11

(further entries)
#	Molecule	Tg IFNy HTS
97	CN(C)CC1CN(c2ncc(F)cn2)Cc2nccn2C1 (stereo not given)	-38
98	Cc1nccn1-c1ccc(CNC(=O)c2cn(-c3ccccc3)nn2)cc1	-22
99	COCc1cc(CN(C)c2ncnc3[nH]ccc23)[nH]n1	8
100	CCN1CCN(C(=O)Cn2nc(C)c(C)c2C)C(Cc2cccc(-c3ccncc3)c2)C1=O (stereo not given)	-4
101	COc1ccc(-c2nc3c(s2)CN(S(=O)(=O)c2cccc(C)c2)CC3)cc1OC	-89*
102	CN(C)c1nc(N2CCCC2)nc2c1CCN(Cc1ccoc1)CC2	-46
103	CNC(=O)CC1CCN(Cc2cc(C(C)(C)C)ccc2O)CC1	-47
104	Cc1noc(C)c1NC(=O)Nc1ccc2c(c1)C(=O)N([C@H](C)CO)C[C@H](C)[C@@H](CN(C)S(=O)(=O)c1cccs1)OCCCC[C@H](C)O2	185
105	Cc1nccn1Cc1cccc(C(=O)Nc2ccc(-n3ccnc3C(C)C)cc2)c1	-28
106	Cc1ccc(-c2cc(C(=O)Nc3nnc(CCn4nc(C)cc4C)s3)no2)cc1	12
107	Cc1cccc(CN2CCN(Cc3cnc(-c4ccccn4)nc3)CC2)c1	2
108	N#C[C@@H]1[C@H](c2ccccc2)[C@H](CO)N1C(=O)c1ccccc1F	10

(further entries)
#	Molecule	Tg IFNy HTS
109	CCCN(CC#Cc1ccccc1)C(=O)c1ccc2nccn2c1	-3
110	CC(=O)NCCc1csc(C2CCCN(C(=O)/C=C/c3ccccc3Cl)C2)n1 (stereo not given)	-6
111	COCC(=O)N1CCn2c(CN3CCN(C)CC3)cnc2C1	-5
112	O=C(OCc1ccc2c(c1)OCO2)c1ccc(S(=O)(=O)N2CCCCC2)cc1	-11
113	C=CCOc1cc(NC(C)=O)c(C(C)=O)cc1C(C)=O	52
114	COc1ccc(S(=O)(=O)Nc2ccc3c(c2)CC(=O)N([C@H](C)CO)C[C@H](C)[C@@H](CN(C)Cc2ccc(C(=O)Nc4ccccc4N)cc2)O3)cc1	11
115	O=C(NCCS(=O)(=O)c1ccc(C(F)(F)F)cn1)c1ccc(Cl)cc1	13
116	O=c1c(C(F)(F)F)cccn1CCc1nc(-c2ccc(Cl)cc2)cs1	?
117	CCS(=O)(=O)Nc1ccc2c(c1)C(=O)N(C)C[C@@H](OC)[C@H](C)CN(C(=O)c1ccc3c(c1)OCO3)[C@@H](C)CO2	13
118	COC(=O)c1cc2n(n1)CCCN(C(=O)c1nnn(Cc3ccccc3)c1C)C2	10
119	Cc1ccc(C2(O)CCN(Cc3[nH]cc(C)c(=O)c3C)CC2)nc1	7
120	Cc1cccc(-c2nc(C)c(CCNS(=O)(=O)c3ccc([N+](=O)[O-])cc3)s2)c1	i
121	CCCc1cc2c(cc1NC(=O)C(C)Oc1ccc(-n3cnnn3)cc1)OCO2 (stereo not given)	5
122	C[C@H]1CN([C@@H](C)CO)C(=O)c2c(c3ccccc3n2C)-c2ccccc2CO[C@H]1CN(C)S(=O)(=O)c1ccccc1C#N	-20
